TSHR agonist: qHTS Assay for Agonists of the Thyroid Stimulating Hormone Receptor; HEK293-CNG-TSHR cells (CNG channel as cAMP sensor), membrane potential dye, cAMP; Potency, µM (doses to about 57.1 µM), for the others: at the top dose activation, most hits filed as activators; 0.48% of 73,000 active; AID 926, 2007; active = well fitted activation curve of enough size with the parental cells flat; inconclusive = any curve in the parental cells; inactive = parental cells flat and receptor cells flat or falling; further: potency means the concentration at half of the fitted maximal effect; % of control where 0% means no effect; weak receptor curves with flat parental cells got no call and are not listed
Target sequence (P16473 whole entry, looked up): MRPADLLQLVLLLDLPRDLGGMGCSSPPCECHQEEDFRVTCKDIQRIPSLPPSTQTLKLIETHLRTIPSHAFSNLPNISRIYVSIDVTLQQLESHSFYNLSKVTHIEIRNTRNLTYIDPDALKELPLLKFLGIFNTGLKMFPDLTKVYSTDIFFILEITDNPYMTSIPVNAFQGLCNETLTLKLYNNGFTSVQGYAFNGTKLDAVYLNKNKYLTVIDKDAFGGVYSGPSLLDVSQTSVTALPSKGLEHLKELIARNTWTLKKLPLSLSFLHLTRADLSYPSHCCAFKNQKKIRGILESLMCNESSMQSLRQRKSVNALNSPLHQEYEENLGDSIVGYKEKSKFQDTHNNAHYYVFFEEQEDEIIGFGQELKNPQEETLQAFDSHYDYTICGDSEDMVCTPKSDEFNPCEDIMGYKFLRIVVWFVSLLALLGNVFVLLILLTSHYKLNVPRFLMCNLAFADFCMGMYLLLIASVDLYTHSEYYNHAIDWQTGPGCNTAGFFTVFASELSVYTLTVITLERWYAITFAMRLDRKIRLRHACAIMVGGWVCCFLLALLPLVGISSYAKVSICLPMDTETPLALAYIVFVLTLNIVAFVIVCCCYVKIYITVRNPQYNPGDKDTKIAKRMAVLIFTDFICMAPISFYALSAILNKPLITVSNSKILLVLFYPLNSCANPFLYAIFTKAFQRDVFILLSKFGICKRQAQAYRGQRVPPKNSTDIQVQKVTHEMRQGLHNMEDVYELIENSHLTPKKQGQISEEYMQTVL
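HEK 293 cells stably expressing TSHR and a cAMP-gated CNG channel; parental CNG-only cells as counterscreen. Cells preloaded 60 min with membrane potential dye plus 100 uM RO 20-1724, then compound 30 min; fluorescence read at 590 nm.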
Resorufin fluor: qHTS Assay for Spectroscopic Profiling in Resorufin Spectral Region; Compound fluorescence, resorufin region 547/598 nm, buffer; active compounds read high; 0.04% of 59,000 active; max dye-equivalent concentration, M; active = above 10 nM dye equivalent; inconclusive = 1 to 10 nM; inactive = 1 nM or less; a few of its hits are not listed in these tables; further: highest value over a series up to 38 µM
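Tris 100 mM pH 8.0; compound added, 15 min RT; CCD imager read, ex 547 nm/em 598 nm; signal normalized to resorufin standard curve (six concentrations per plate) as dye-equivalent concentration.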
A488 fluor: qHTS Assay for Spectroscopic Profiling in A488 Spectral Region | compound autofluorescence, A488 spectral region, dye equivalency; active compounds read high | 0.1% of 59,000 active | AID 591, 2007 | max dye equivalency, M; active = above 10 nM dye equivalent; inconclusive = 1 to 10 nM; inactive = 1 nM or less; about half of its hits are not listed in these tables;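 further: highest value over a series up to 38 µM; compound alone in buffer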
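Compounds pin-transferred into 100 mM Tris buffer, pH 8.0, incubated 15 min at room temperature, then imaged with 480 nm excitation/540 nm emission filters. Fluorescence converted to Alexa 488 dye-equivalent concentration via an on-plate six-point A488 standard curve.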
AID923: qHTS Assay for Allosteric/Competitive Inhibitors of Caspase-1: Spectroscopic Profiling in AFC Spectral Region; compound fluorescence, AFC spectral region (405/520 nm); almost no hit is shown here; Potency, µM (series often up to 57.5 µM), for the others: at the top dose fluorescence increase, actives largely listed as activators; 1.1% of 75,000 active; active means well fitted activation curve with a large enough effect; inconclusive means small, poorly fitted or top-dose-only effect;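 further: potency means the concentration at half of the fitted maximal effect; 0% is about no effect; scaled to a free AFC standard on each plate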
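Baseline compound fluorescence (AFC region, 405 nm ex/520 nm em) taken from the intercept of kinetic reads with 50 nM caspase-1 and 5 uM Ac-WEHD-AFC; normalized to an on-plate AFC standard curve; compounds titrated up to 57 uM.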
A647 fluor: qHTS Assay for Spectroscopic Profiling in A647 Spectral Region. max dye-equivalent concentration, M. 59,000 tested, under 10 active. Compound fluorescence, A647 channel (570/671 nm), Tris buffer. AID 592, 2007; active means above 1 µM dye equivalent; inconclusive means 0.1 to 1 µM; inactive means 0.1 µM or less;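 further: values scaled relative to a standard on each plate; highest value over a series up to 38 µM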
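Fluorescence read (570 nm ex, 671 nm em) after 15 min RT incubation of compounds in 100 mM Tris buffer, pH 8.0; values expressed as dye-equivalent concentration against a six-point A647 standard series on each plate.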
* = called active by the depositor; i = inactive; ? = inconclusive; nt = not tested or not shown; [ ] = another dose, or the depositor's remark.

SMILES	TSHR agonist	Resorufin fluor	A488 fluor	AID923	A647 fluor
Cc1ccc(-c2noc(CCC(=O)N3CCN(c4cccc(C(F)(F)F)c4)CC3)n2)cc1	?	i	i	0.3%	1.2e-08
Cc1[nH]c(=O)[nH]c(=O)c1NC(=O)CSc1ncccc1-c1nc2ccccc2[nH]1	2%	i	i	0.0%	4e-09
Cc1cc(C)n(-c2nc3c(c(=O)n(C)c(=O)n3C)n2Cc2cccc(Br)c2)n1	?	i	i	-0.9%	1e-09
Cc1ccc(Cl)cc1N1CCN(C(=O)C2CCN(c3nnc(-n4cccc4)s3)CC2)CC1	29%	nt	nt	1.9%	nt
COc1ccc(/C=N\n2nnc3ccccc32)cc1	12%	i	i	0.5%	1.2e-09
Cc1cccc(CS(=O)(=O)Cc2ccc(C(=O)NCc3ccco3)o2)c1	0%	i	i	2.2%	2.5e-08
O=C(O)CSc1nnc(-c2ccncc2)n1CCc1ccccc1	-9%	i	i	0.9%	1e-09
Cc1cc2c(nc1C)CCCN2CC(O)CN1CCCc2nc(C)c(C)cc21	15%[11.4 µM]	nt	nt	1.9%[11.5 µM]	nt
CCOC(=O)c1cc2c(=O)n(C)c3ccccc3c2s1	?	i	i	-0.7%	4e-09
CCc1nc2ccc(C(=O)NCc3ccco3)cc2nc1CC	?	i	i	-0.8%	7.2e-09
O=C(O)C1C2C=CC(O2)C1C(=O)NCc1ccc(Cl)cc1 (stereo not given)	5%	i	i	4.3%	1e-09
COc1ccc(-c2nnc3ccc(SCC(=O)N4CCCC4)nn23)cc1	4%	nt	nt	2.8%	nt
O=C(CN1C(=O)COc2ccccc21)Nc1ccc(F)cc1	-12%	nt	nt	0.3%	nt
OC1CCCC1	?	nt	nt	-0.5%	nt
O=C(CSc1nnnn1C1CCCCC1)NCCc1ccccc1	?	i	i	0.4%	2e-09
Cn1c2c(c(=O)[nH]c1=O)C(NC(=O)c1ccco1)(C(F)(F)F)C(=O)N2 (stereo not given)	0%	i	i	0.0%	1e-09
CCOC(=O)CSc1nnc(C)c(=O)[nH]1	nt	i	i	nt	1e-09
CCN(CC)S(=O)(=O)c1cccc(-c2nnc(SCC(=O)NCCC3=CCCCC3)n2N)c1	15%	i	i	0.2%	3.4e-08
CC(=O)n1nc(-c2ccco2)nc1SCc1ccccc1	7%	nt	nt	-2.8%	nt
CCC(Oc1ccccc1)C(=O)Nc1cc(C)on1 (stereo not given)	5%	nt	nt	-0.1%	nt
CCOC(=O)c1[nH]c(C)c(C(=O)Nc2ccc(Cl)cc2)c1C	-13%	nt	nt	3.0%	nt
CCOC(=O)N1CCC(NC(=O)c2cn(-c3ccc(OC)cc3)c(=O)c3ccccc23)CC1	2%	i	i	-1.1%	1.5e-08
CC1(C)CC(=O)C2=C(C1)OC(N)=C(C#N)C21C(=O)N(CN2CCOCC2)c2ccccc21 (stereo not given)	nt	i	i	nt	8.2e-08
Cc1cccc(N2CC3=C(C2=O)C(c2ccccc2)NC(=O)N3C)c1 (stereo not given)	-11%	i	i	1.6%	1e-09
NC(=O)C1CC(=O)N(Cc2ccc3c(c2)OCO3)C(=Nc2ccccc2)S1 (stereo not given)	1%	i	i	0.1%	6.7e-09
CCN(Cc1ccccc1)C(c1ccncc1)c1nnnn1C(C)(C)C (stereo not given)	?	i	i	-2.2%	4.7e-09
CCOc1ccc(NC(=O)CNC(=O)c2ccc(OC)c(OC)c2)cc1	8%	i	i	1.2%	1e-09
COC(=O)[C@@]1(Cc2ccc(F)cc2)[C@H]2c3cc(C(=O)N(C)C)n(Cc4ccccn4)c3C[C@H]2CN1C(=O)c1ccccc1	?	nt	nt	-2.4%	nt
COc1cccc(-c2nc(CC(=O)O)cs2)c1OC	1%	i	i	-3.5%	1e-09
CCCNC(=O)c1ccccc1NC(=O)CN(c1ccccc1OCC)S(C)(=O)=O	9%	i	i	-1.7%	2e-09
COc1cccc(Cn2c(NCc3ccco3)nc3c2c(=O)n(C)c(=O)n3C)c1	nt	i	i	nt	9.4e-08
Cc1cccc(C)c1NS(=O)(=O)c1ccc(F)cc1	nt	i	i	-0.2%	5.5e-09
COc1ccc(CCNC(=O)CSc2nnnn2-c2ccccc2)cc1	29%	nt	nt	1.8%	nt
Nc1cc(=O)nc(SCc2ccccc2)n1Cc1ccco1	4%	i	i	-1.0%	1e-09
CCOC(=O)c1sc(C)c2c(=O)n(CC)nnc12	-10%	i	i	2.2%	1.6e-08
Cn1c(CNC(=O)c2ccc(F)cc2)nc2ccccc21	10%	nt	nt	2.8%	nt
COCc1nnc(NC(=O)CSc2ccc(C)cc2)s1	?	i	i	-1.1%	1e-09
CC(C)=C[C@H]1[C@@H](COC(=O)c2ccccc2Cl)C1(C)C	?	i	i	3.8%[11.5 µM]	2.1e-08
Cc1c(NCc2nc3ccccc3[nH]2)c(=O)n(-c2ccccc2)n1C	0%	i	i	-1.1%	4.5e-09
COCCn1c(C23CC4CC(CC(C4)C2)C3)n[nH]c1=S	25%	i	i	-1.0%	6.4e-09

Some of the entries above, set out differently.
Structure | TSHR agonist | Resorufin fluor | A488 fluor | AID923 | A647 fluor
COCCn1c(C23CC4CC(CC(C4)C2)C3)n[nH]c1=S | 25% | i | i | -1.0% | 6.4e-09
Cc1c(NCc2nc3ccccc3[nH]2)c(=O)n(-c2ccccc2)n1C | 0% | i | i | -1.1% | 4.5e-09
COc1cccc(Cn2c(NCc3ccco3)nc3c2c(=O)n(C)c(=O)n3C)c1 | nt | i | i | nt | 9.4e-08

Remaining list, next part.
SMILES	TSHR agonist	Resorufin fluor	A488 fluor	AID923	A647 fluor
Cc1noc(C)c1S(=O)(=O)NCCCN1CCN(Cc2ccccc2)CC1	8%	i	i	2.9%	1.8e-09
CCOC(=O)Nc1sc(NS(=O)(=O)c2ccccc2)nc1C	-12%	nt	nt	-0.1%	nt
Cc1cc(Oc2ccccc2)nc(OCC#N)n1	3%	i	i	0.4%	3.6e-08
O=C1c2ccccc2NC(c2ccccn2)N1c1ccc(Cl)cc1 (stereo not given)	?	i	i	18%	2.5e-09
CCCCNc1nc2ccccc2n1CC(=O)N1CCc2ccccc2C1	?	i	i	1.1%	6.8e-09
CCCCCn1c(N(C)Cc2ccccc2)nc2c1c(=O)[nH]c(=O)n2C	?	nt	nt	-1.7%	nt
Cc1ccnc(NC(=O)CCC(=O)N(CC(=O)NCCc2ccccc2)Cc2ccco2)c1	?	i	i	5.8%	3e-09
O=C(NCc1ccco1)c1ccc2c(=O)n(CCC3=CCCCC3)c(=O)[nH]c2c1	5%	i	i	5.2%	5.5e-09
CC(C)(C)NC(=O)CN(C(=O)CS(=O)CC(=O)Nc1ccc(F)cc1)c1ccc(Cl)cc1 (stereo not given)	-6%	i	i	0.0%	4.8e-08
Oc1cccc2ccc(SSc3ccc4cccc(O)c4n3)nc12	4%[11.4 µM]	i	i	0.3%[11.5 µM]	3.7e-08
CCc1nc(-c2ccc(-c3ccc(OC)cc3)nc2OC)no1	?	i	i	6.9%	1.8e-08
COc1ccc(NC(=O)N2CCCC3(CCN(C(=O)c4ccco4)CC3)C2)cc1	3%	i	i	2.7%	1.9e-09
CCOC(=O)N1CCC(Nc2c(NCCCN(CC)c3cccc(C)c3)c(=O)c2=O)CC1	-8%	nt	nt	-3.2%	nt
COC(=O)CSc1nc(-c2ccccc2)cc(-c2ccco2)c1C#N	?	i	i	1.2%	4.2e-08
CCCOc1ccccc1NC(=O)c1ccc(N)cc1	29%	i	i	0.7%	5.6e-09
COc1ccc2c(c1OC)C(=O)OC2Nc1ccccc1S(=O)(=O)C(F)F (stereo not given)	5%	i	i	-0.9%	1e-09
CN(C)C(CNC(=O)NC1CCCCC1)c1cccnc1 (stereo not given)	2%	i	i	1.3%	8.6e-09
Cc1nc2nc(-c3cccnc3)[nH]n2c(=O)c1Cc1ccccc1	7%	i	i	-1.0%	1e-09
C=CCSc1nnc(Cn2c(=O)sc3ccccc32)n1C	-3%	nt	nt	-2.1%	nt
CCOC(=O)N1CCN(C(=O)c2ccc(N3C(=O)c4ccccc4C3=O)cc2)CC1	3%	i	i	-0.6%	8.6e-09
Cc1ccccc1-c1nnc(-c2ccc(Cl)cc2)o1	?	nt	nt	0.0%	nt
Nc1nc(NCc2ccccc2)nc(-c2ccccc2)n1	3%	i	i	-0.9%	1e-09
O=C(NC1CCCCC1)c1ccc2c(=O)n(CC3CCCO3)c(=O)[nH]c2c1 (stereo not given)	7%	i	i	2.8%	4.1e-09
CCOc1ccccc1Nc1cc(C)nc2nc(C)nn12	15%	nt	nt	0.6%	nt
Cc1c(C(=O)N2CCOCC2)oc2c1C(=O)CC(C)(C)C2	-10%	i	i	1.7%	1.3e-08
Cc1ccc(-c2nnc3ccc(SCC(=O)NCc4ccco4)nn23)cc1	0%[11.4 µM]	i	i	0.3%	1e-09
COc1ccc(CN2CCN(c3ccccn3)CC2)c(OC)c1	14%[11.4 µM]	nt	nt	2.8%	nt
O=C1CC(c2ccccc2)NC(=O)N1 (stereo not given)	nt	i	i	nt	1e-09
CC1CCN(c2ccc(C(=O)NCCc3ccccc3)cn2)CC1	?	i	i	-0.6%	1.6e-08
COc1cccc(S(=O)(=O)N2CCN(c3ccccc3F)CC2)c1	?	i	i	-0.6%	1.7e-09
CCNC(=O)C1CC(=O)N(Cc2ccc3c(c2)OCO3)C(=Nc2ccc(F)cc2)S1 (stereo not given)	16%	i	i	-1.6%	1e-09
Cn1c(C(=O)O)c(CC(=O)Nc2ccc(F)cc2F)c2ccccc21	10%	i	i	-0.8%	1.9e-09
FC(F)(F)c1cnc(Nc2ccc(N3CCOCC3)cc2)c(Cl)c1	?	i	i	-1.3%	4.7e-09
Cc1cc(C)n2c(SCC(=O)Nc3ccccc3)nnc2n1	-7%	nt	nt	0.1%	nt
CCOC(=O)c1cnc2nc(COc3ccccc3)[nH]n2c1=O	16%	i	i	1.8%	8.1e-09
COC(=O)C1=C(C)NC(=O)NC1c1ccccc1 (stereo not given)	2%	i	i	-0.6%	1.4e-08
Cc1cc(C)c2nc(-c3ccccn3)cc(C(=O)NCc3ccco3)c2c1	?	i	i	2.7%	1.5e-09
Cc1ccc(OCC(=O)N2CCCCCC2)c(C)c1	25%	i	i	0.9%	2e-08
O=C(NCCN1CCCC1)c1ccc2c(=O)n(CCc3ccccc3)c(=O)[nH]c2c1	-1%	i	i	2.7%	5.9e-09
O=c1c2ccccc2nc2n1CCN2	-3%	nt	nt	-0.2%	nt
O=C1NCCCC1C(=O)Nc1ccccn1 (stereo not given)	-12%	i	i	1.7%	1e-09
COc1ccccc1-n1nc(C(=O)NCc2ccco2)c2ccccc2c1=O	-2%[11.4 µM]	i	i	-2.7%	6.7e-09
CCCc1cc(C(=O)Cc2ccc(C(=O)OCC)o2)c(O)cc1O	?	i	i	-0.2%	1e-09
O=C(Nc1cccc(F)c1)N1CCC2(CC1)CCN(S(=O)(=O)c1ccccc1)CC2	11%	i	i	3.0%	1e-09
CN(C)/C=C/c1c(C#N)c(=O)ncn1Cc1ccccc1	11%	i	i	-0.8%	2e-09
C=C(C)[C@H]1CC[C@]2(C(=O)O)CC[C@]3(C)[C@@H](CC[C@H]4[C@@]5(C)CC[C@@H](O)C(C)(C)[C@@H]5CC[C@@]43C)[C@H]12	-18%[25.6 µM]	i	i	-1.1%[25.7 µM]	1e-08
O=C1CCCc2c1nn(-c1ccccc1)[n+]2[O-]	nt	i	i	0.0%	1e-09
CSCCC(NC(=O)c1ccccc1)c1nc(-c2ccccc2)no1 (stereo not given)	?	i	i	-0.2%	1e-09

Screens: PubChem BioAssay, National Center for Advancing Translational Sciences (NCATS)

Some of the compounds tested; the hit share may differ from the screen's.
